Cruzain noTriton = cruzain (T. cruzi) inhibition without detergent. AID 1476. 2.3% of 200,000 active. P25779. purified cruzain, Z-FR-AMC fluorescence, no detergent. Potency, µM, for the others: max response, negative = inhibition, actives largely listed as inhibitors;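 further: plate controls were enzyme without inhibitor for no effect and buffer without enzyme for full effect; nearly all actives have a fitted effect of over 40% in size; top concentration of the series not given in the record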
Target sequence (P25779 123-467 limits assumed): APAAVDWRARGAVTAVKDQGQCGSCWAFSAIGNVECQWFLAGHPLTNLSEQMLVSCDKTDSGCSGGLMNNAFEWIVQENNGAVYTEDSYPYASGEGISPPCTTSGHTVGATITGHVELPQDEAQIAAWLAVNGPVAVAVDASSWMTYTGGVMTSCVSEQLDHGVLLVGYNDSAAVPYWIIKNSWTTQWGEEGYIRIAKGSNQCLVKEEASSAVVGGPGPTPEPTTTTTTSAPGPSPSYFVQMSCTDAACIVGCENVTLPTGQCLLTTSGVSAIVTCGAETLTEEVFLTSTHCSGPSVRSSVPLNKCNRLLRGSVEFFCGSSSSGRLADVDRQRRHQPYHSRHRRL
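Detergent-free condition (0.00005% Triton X-100) in acetate buffer pH 5.5 with DTT. 1.5 nM enzyme and compound were pre-mixed 15 min, then 2 uM Z-FR-AMC substrate added; reaction progress from fluorescence change between first and third reads (60 s).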
Cruzain inh Det = cruzain (T. cruzi) inhibition with detergent; P25779; purified cruzain, Z-FR-AMC fluorescence, 0.01% Triton; Potency, µM, for inactives: max response, negative = inhibition, usual class: inhibitors; 0.43% of 200,000 active; AID 1478;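 further: plate controls were neutral wells for no effect and buffer without enzyme for full effect; nearly all actives have a fitted effect of over 40% in size; top concentration of the series not given in the record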
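Steps: dispense cruzain (1.5 nM final) in acetate buffer pH 5.5 with DTT and 0.01% Triton X-100; pin-transfer compounds; incubate 15 min RT; add Z-FR-AMC (2 uM final); read fluorescence every 30 s, using the 60 s intensity change.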
NS1 function inh = inhibitors of influenza NS1 protein function; S. cerevisiae slowed by influenza A NS1, growth recovery by OD600; Potency, µM (series often up to 46.1 µM), for the others: top-dose activity, positive = more growth; 0.4% of 270,000 active; AID 2326; active means well fitted rising curve with a large enough effect; inconclusive means small, poorly fitted or top-dose-only effect; inactive means no such curve, though single readings can be large or run the other way; further: nearly all actives have a fitted effect of over 50% in size
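OD600 was taken as the measure of yeast growth restored by compound in an NS1-expressing S. cerevisiae strain. Cells had been washed out of glucose medium and diluted 1:100 into galactose -URA medium, pH 6.0.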
Marburg entry inh = blocks Marburg virus binding to or entry into cells | Marburg virus pseudotyped entry inhibition, cell reporter; control for the full effect not named in the record; about a third of the inactives were read at about 46 µM | Potency, µM (doses to about 37.8 µM), for inactives: at the highest dose activity change, negative = inhibition, actives largely listed as inhibitors | 1.8% of 300,000 active | AID 540276; active = well fitted inhibition curve with a large enough effect; inconclusive = small, poorly fitted or top-dose-only effect, or effect the other way; inactive = flat fitted curve, though single readings scatter; tested in HEK293 cells; about a fifth of its hits are not listed in these tables; further: on the % scale 0 is the no-effect control and ±100 the full control effect; luciferase read-out
RE007 growth inh = less growth of the S. pombe RE007 Vpr strain; S. pombe RE007 Vpr strain, BacTiter-Glo ATP luminescence, 24 h; control for the full effect not named in the record; 0.21% of 360,000 active; Potency, µM (doses to about 92.2 µM), for inactives: at the top dose activity change, negative = less growth; active = well fitted falling curve with a large enough effect; inconclusive = small, poorly fitted or top-dose-only effect; inactive = no such curve, though single readings can be large or run the other way;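 further: on the % scale 0 is the no-effect control and ±100 the full control effect; nearly all actives have a fitted effect of over 50% in size; the assay follows cell death caused by Vpr and the record does not say whether a fall means rescue or toxicity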
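Fission yeast RE007 carrying one integrated HIV-1 vpr copy, seeded at OD 0.01 in PMG+AL medium with 23 nL pinned compound. Grown 24 h at 30 degrees; viability read by BacTiter-Glo luminescence after 5 min.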
SARS PLP yeast = blocks SARS-CoV papain-like protease in a yeast assay. S. cerevisiae expressing SARS-CoV PLpro, growth rescue; control for the full effect not named in the record. Potency, µM (series often up to 32.9 µM), inactives show at the highest dose activity, positive = growth rescue. 0.19% of 330,000 active; active means well fitted rising curve with a large enough effect; inconclusive means small, poorly fitted or top-dose-only effect; inactive means no such curve, though single readings can be large or run the other way; further: 0% is about no effect; nearly all actives have a fitted effect of over 55% in size; growth read by luminescence after 48 h
LASV entry inh = blocks Lassa virus binding to or entry into cells; Lassa virus pseudotype entry inhibition, cell reporter; control for the full effect not named in the record; Potency, µM (doses to about 37.9 µM), for inactives: at the top dose activity change, negative = inhibition, most hits filed as inhibitors; 1.2% of 300,000 active; AID 540256; active means well fitted inhibition curve with a large enough effect; inconclusive means small, poorly fitted or top-dose-only effect, or effect the other way; inactive means flat fitted curve, though single readings scatter; tested in HEK293 cells; further: on the % scale 0 is the no-effect control and ±100 the full control effect; nearly all actives have a fitted effect of over 50% in size; luciferase read-out
2A StopGo = lowers the luciferase signal of an FMDV 2A StopGo reporter. human cells with a luciferase reporter of 2A StopGo recoding; control for the full effect not named in the record. Potency, µM (doses to about 57.9 µM), for inactives: at the highest dose signal change, negative = less light. 1.2% of 410,000 active; active = well fitted falling curve with a large enough effect; inconclusive = small, poorly fitted or top-dose-only effect; inactive = no such curve, though single readings can be large or run the other way; tested in HEK293T cells; further: on the % scale 0 is the no-effect control and ±100 the full control effect; nearly all actives have a fitted effect of over 45% in size; luciferase light after 4 h
Active calls of the source: *; & = joins results of further samples; [ ] = another dose, or the depositor's remark. Unless noted, the call rests on the fitted dose curve; in most records, active means well fitted curve in the direction sought with a large enough effect; inconclusive means small, poorly fitted or top-dose-only effect, or another doubt; inactive means no such curve, though single readings can be large; an effect the other way counts as inactive or inconclusive. Potency means the concentration at half of the fitted maximal effect.

For NC(=S)NN=C1CCCCCCCCC1 the results were Marburg entry inh -12%, RE007 growth inh 5%, LASV entry inh -1% and 2A StopGo -25%.
Screening Cc1cc(C)n2nc(CNS(=O)(=O)c3ccc(C)c(C)c3)nc2n1 returned Cruzain noTriton -5%, Cruzain inh Det -1.6%, NS1 function inh 3%, Marburg entry inh -3%[46.1 µM], RE007 growth inh -6%, SARS PLP yeast -4%, LASV entry inh 19%[46.1 µM] and 2A StopGo -21%&-16%.
`C=CCS(=O)(=O)N1CCC(CCOc2ccccc2)(C(=O)OCC)CC1` gave NS1 function inh -8%, Marburg entry inh inconclusive, RE007 growth inh 5%, SARS PLP yeast -1%, LASV entry inh inconclusive and 2A StopGo -10%.
Cc1ccc(Cc2cnc(NC(=O)/C(C#N)=C/c3ccc(-c4ccc([N+](=O)[O-])cc4)o3)s2)cc1 was read as Cruzain noTriton 2.5µM*, Cruzain inh Det 1.3%, NS1 function inh -18%, Marburg entry inh -1%, RE007 growth inh -11%, SARS PLP yeast -4%, LASV entry inh 24% and 2A StopGo -13%.
Screening O=c1c2c3c(sc2ncn1-n1cccc1)CCCCC3 returned Cruzain noTriton -19%, Cruzain inh Det -7.8%, NS1 function inh 4%, Marburg entry inh 3%, RE007 growth inh -24%, SARS PLP yeast -14%, LASV entry inh 1% and 2A StopGo 9%.
Screening COC(=O)c1cc2sc(C)cc2n1CC(=O)Nc1cccc(SC)c1 returned Cruzain noTriton -4%, Cruzain inh Det -4.2%, Marburg entry inh 11%[46.1 µM] and 2A StopGo -3%.
For O=C(CSc1nnc(C2CC2)n1-c1ccccc1)NCCN1C(=O)CSC1=O the results were Marburg entry inh -2%, RE007 growth inh 0%, SARS PLP yeast -3%, LASV entry inh 17% and 2A StopGo -17%.
O=C(CCC(=O)OCCCC(F)(F)C(F)(F)F)NC1CCCCC1 was read as Cruzain noTriton 15%, Cruzain inh Det 2.4%, NS1 function inh 3%, Marburg entry inh 5%, RE007 growth inh -13%, SARS PLP yeast 2%, LASV entry inh -6% and 2A StopGo -19%.
O=C(NCCOc1ccccc1)C1CCC(=O)N(CCCN2CCOCC2)C1 (stereo not drawn) was read as Marburg entry inh inconclusive, RE007 growth inh 20%, LASV entry inh -9% and 2A StopGo -9%.
For O=C(Nc1nc2ccc(S(=O)(=O)N3CCCC3)cc2s1)c1cccs1 the results were Cruzain noTriton 0%, Cruzain inh Det -8.8%, NS1 function inh 8%, Marburg entry inh inconclusive, RE007 growth inh 1%, SARS PLP yeast -1%, LASV entry inh 1% and 2A StopGo 40%[activator].
For CCc1ccc(NC(=O)CCc2nc3ccccc3[nH]2)cc1 the results were Marburg entry inh 12%[46.1 µM], RE007 growth inh 5%, SARS PLP yeast 0%, LASV entry inh 22%[46.1 µM] and 2A StopGo -6%.
Screening Cn1ncc([N+](=O)[O-])c1C(=O)N/N=C/c1c[nH]c2ccccc12 returned NS1 function inh -1%, RE007 growth inh -6%, SARS PLP yeast 1% and 2A StopGo 27%.
For Cc1ccc(S(=O)(=O)N2CCN(C(=O)c3ccccc3)CC2)c(C)c1NS(C)(=O)=O the results were NS1 function inh -2%, RE007 growth inh -10%, SARS PLP yeast 0% and 2A StopGo -3%.
Cc1noc(C)c1C(=O)Nc1ccc(-n2ccc(C(F)(F)F)n2)cc1 was read as NS1 function inh 1%, Marburg entry inh 3%, RE007 growth inh -10%, SARS PLP yeast 0%, LASV entry inh -1% and 2A StopGo -6%.
CCCCNC(=S)N/N=C/c1ccc(C#N)cc1 was read as Marburg entry inh inconclusive, RE007 growth inh -10%, SARS PLP yeast 2%, LASV entry inh -8%[46.1 µM] and 2A StopGo -18%.
Screening CCn1cc(CN2CCC(n3nccc3NC(=O)CCOc3ccccc3)CC2)cn1 returned NS1 function inh 9%, Marburg entry inh 3%[46.1 µM], RE007 growth inh 11%, SARS PLP yeast 1%, LASV entry inh 9%[46.1 µM] and 2A StopGo -12%.
For CCOC(=O)C1C(=O)NC(N2CCN(Cc3ccccc3)CC2)=NC1c1ccco1 (stereo not drawn) the results were Cruzain noTriton -3%, Cruzain inh Det 0.8%, NS1 function inh 4%, Marburg entry inh 4%, RE007 growth inh 7%, SARS PLP yeast -1%, LASV entry inh 16% and 2A StopGo 8%.
COc1ccc(-n2c(=O)c3ccc(C(=O)NCc4ccc(C)cc4)cc3n(Cc3ccc(F)cc3Cl)c2=O)cc1 was read as Cruzain noTriton -11%, Cruzain inh Det -1.6%, Marburg entry inh 4%[46.1 µM], LASV entry inh 1%[46.1 µM] and 2A StopGo 14%.
Screening CCOC(=O)c1cccc(NC(=O)c2cnc(N3CCCCC3)c3ccccc23)c1 returned Cruzain noTriton inconclusive, Cruzain inh Det -16%, LASV entry inh inconclusive and 2A StopGo inconclusive.
CCOC(=O)N/N=C1\CC(C)S(=O)(=O)c2ccc(Cl)cc21 (stereo not drawn) was read as NS1 function inh -3%, Marburg entry inh -10%, RE007 growth inh -7%, SARS PLP yeast 1%, LASV entry inh -2% and 2A StopGo -9%.
CC(C)(C)c1cc(C(=O)Nc2cccnc2)cc(C(=O)Nc2cccnc2)c1 was read as NS1 function inh 4%, Marburg entry inh inconclusive, RE007 growth inh 21%, SARS PLP yeast -1%, LASV entry inh -11% and 2A StopGo -23%.
For O=S(=O)(c1cccs1)N1CCN(c2cccc(Cl)c2)CC1 the results were NS1 function inh -1%, Marburg entry inh -17%, RE007 growth inh -13%, SARS PLP yeast -4%, LASV entry inh inconclusive and 2A StopGo -8%.
`CC(C)(CO)NC(=O)c1ccc2nc(Cc3cccc(Cl)c3)oc2c1` gave NS1 function inh 2%, RE007 growth inh -19%, SARS PLP yeast 2% and 2A StopGo 62%[activator].
For O=C(Nn1cnnc1)c1cc(-c2ccccn2)nc2ccccc12 the results were Cruzain noTriton 0%, Cruzain inh Det -3.5%, NS1 function inh 10%, Marburg entry inh 11%, RE007 growth inh -5%, SARS PLP yeast 0%, LASV entry inh 10% and 2A StopGo -6%.
Screening COc1ccccc1COCC(O)CNCCc1ccc(C(F)(F)F)cc1 (stereo not drawn) returned NS1 function inh 0%, RE007 growth inh -16%, SARS PLP yeast -1% and 2A StopGo -21%.
O=C(Cc1c(Cl)cccc1Cl)NC1CC1 was read as NS1 function inh 10%, Marburg entry inh -1%[46.1 µM], RE007 growth inh 3%, SARS PLP yeast 1%, LASV entry inh 16%[46.1 µM] and 2A StopGo 3%.
`O=C(CSc1nncn1-c1ccccc1)Nc1cc(Cl)cc(Cl)c1` gave Cruzain noTriton 25µM*, Cruzain inh Det -2.0%, NS1 function inh 1%, Marburg entry inh 25%, RE007 growth inh -15%, SARS PLP yeast 2%, LASV entry inh 8% and 2A StopGo 7%.
For Cc1ccc(S(=O)(=O)Nc2cc(Cl)c3oc4c(c3c2)CCCC4)cc1 the results were Cruzain noTriton inconclusive, Cruzain inh Det 6.4%, LASV entry inh -23%[46.1 µM] and 2A StopGo 41%[activator].
Screening COCCN(C(=O)COC(=O)/C=C/c1ccc(Cl)c(Cl)c1)c1c(N)n(Cc2ccccc2)c(=O)[nH]c1=O returned Marburg entry inh inconclusive, RE007 growth inh -7%, LASV entry inh inconclusive and 2A StopGo -23%.
Screening CCN(c1ccccc1)S(=O)(=O)c1ccc2[nH]cc(C(=O)N3CCOCC3)c(=O)c2c1 returned Cruzain noTriton -3%, Cruzain inh Det -1.3%, NS1 function inh -6%, Marburg entry inh 0%&0%, RE007 growth inh 1%, SARS PLP yeast 4%, LASV entry inh -1% and 2A StopGo 18%.
For Cc1cccc(N2CCN(C(=O)c3cccc(N4C(=O)C5C6C=CC(C6)C5C4=O)c3)CC2C)c1 (stereo not drawn) the results were NS1 function inh 3%, Marburg entry inh -17%[46.1 µM], RE007 growth inh 0%, SARS PLP yeast -2%, LASV entry inh inconclusive and 2A StopGo -26%.
`O=C(Cn1nc(-c2ccccc2)ccc1=O)NCc1ccc(F)cc1Cl` gave Cruzain noTriton 0%, Cruzain inh Det 0.8%, LASV entry inh 16%[46.1 µM] and 2A StopGo 20%.
`Oc1ccc(CCNCc2cc3c(cc2Br)OCO3)cc1` gave Cruzain noTriton 3%, Cruzain inh Det 0.0%, NS1 function inh -1%, RE007 growth inh -6% and 2A StopGo -25%.
`CSc1ccc(Cl)c(C(=O)OCC(=O)NCC(C)C)c1` gave Cruzain noTriton -4%, Cruzain inh Det -1.4%, NS1 function inh 6%, Marburg entry inh 29%, RE007 growth inh -10%, SARS PLP yeast 8%, LASV entry inh 10% and 2A StopGo 26%.
`COCCNC(=O)CSc1nc(-c2ccc(C)cc2)nc2c1c(=O)n(C)c(=O)n2C` gave Cruzain noTriton inconclusive, Cruzain inh Det 3.5%, LASV entry inh 28%[46.1 µM] and 2A StopGo -6%.
`Cn1c2c(c(=O)n(C)c1=O)C1(C(=O)Nc3ccccc31)C(C#N)=C(N)O2` (stereo not drawn) gave Cruzain noTriton -6%, Cruzain inh Det -0.3%, NS1 function inh -15%, Marburg entry inh -1%, RE007 growth inh 0%, SARS PLP yeast -13%, LASV entry inh -1% and 2A StopGo inconclusive.
O=C(O)c1cccc(N/C(=N\S(=O)(=O)c2ccccc2)c2ccccc2)c1 was read as NS1 function inh 14%, RE007 growth inh -15%, SARS PLP yeast 2% and 2A StopGo 4%.
Screening O=C(Cc1n[nH]c(=O)[nH]c1=O)N/N=C/c1ccccc1O returned Cruzain noTriton 0%, Cruzain inh Det -4.5%, NS1 function inh -1%, Marburg entry inh 10%, RE007 growth inh -9%, SARS PLP yeast 2% and LASV entry inh 3%.
`O=C(N/N=C/C(Br)=C/c1ccccc1)c1n[nH]c2c1CCC2` gave Cruzain noTriton 16µM*, Cruzain inh Det -7.2%, NS1 function inh 7%, Marburg entry inh -21%, RE007 growth inh inconclusive, SARS PLP yeast -28%, LASV entry inh inconclusive and 2A StopGo 9%.
CC(=O)Nc1ccc(CN2CCN(C3CCCCC3)C(CCO)C2)cc1 (stereo not drawn) was read as NS1 function inh -5%, RE007 growth inh 13%, SARS PLP yeast 3% and 2A StopGo -14%.
For COc1cc(OC)nc(Oc2cc(C=O)ccc2OC)n1 the results were NS1 function inh 0%, Marburg entry inh -8%, RE007 growth inh 5%, SARS PLP yeast 0%, LASV entry inh inconclusive and 2A StopGo -13%.

Screening results as filed in PubChem BioAssay.
